# TRPV1 PAM: human TRPV1 potentiation. TRPV1-expressing cells, Fluo-8 calcium influx, capsaicin EC20 potentiation; host cell line not named in the record; control for the full effect not named in the record. potentiation, % at 8.33 µM. 320,000 tested, 0.02% active. AID 540277; active means potentiation above 80%; inconclusive means 30% to 80%; inactive means below 30%; note: 0% is about no effect
#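 Fluo-8 calcium influx in TRPV1-expressing cells, kinetic read (ex 480/em 520 nm). Compound added and read 3 min for agonist activity, followed by capsaicin at EC20 final and 2 min further read for enhancement.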
# gsp antag: antagonists of gsp mutant (McCune-Albright syndrome); gsp-mutant cells, cAMP HTRF, 30 min; control for the full effect not named in the record; Potency, µM (titrated, usually from 76.9 µM), for the others: at the top dose activity change, negative = inhibition, most hits filed as inhibitors; 340,000 tested, 0.4% active; AID 624288; active = falling curve of any shape with a large fitted effect; inconclusive = falling curve, mostly with a smaller effect; inactive = flat or rising curve; cell line not stated here;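 note: intracellular cAMP measured with PDE inhibitor Ro 20-1724 present during compound exposure; potency is the fitted concentration of half-maximal effect; % is set by controls: 0 for no effect and ±100 for the full control effect; nearly all actives have a fitted effect of over 65% in size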
#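 G418-selected cells were plated in DMEM/10% FBS for 16-24 h at 37C, then treated with compounds plus the PDE inhibitor […] (300 uM solution added) for 30 min at 37C. Intracellular cAMP was measured by HTRF after 30 min lysis at room temperature.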
# TRPML1 inh: blocks the human TRPML1 channel; 390,000 tested, 0.02% active; Q9GZU1; AID 624415; TRPML1-inducible cells, Ca2+ dye fluorescence, FDSS; hits give low values; inhibition of EC80 agonist-evoked calcium signal; activity change, negative = inhibition, % (concentration not given with the values); in the data active means activity change below about -50%; inconclusive means about -30% to -50%; inactive means above about -30%;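 note: stimulus is agonist 54-4 at its EC80 concentration; % is set by controls: 0 for no effect and ±100 for the full control effect; compound concentration not given in the record; the text of the record puts the active cut at -80%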
# Target sequence (Q9GZU1 whole entry, looked up): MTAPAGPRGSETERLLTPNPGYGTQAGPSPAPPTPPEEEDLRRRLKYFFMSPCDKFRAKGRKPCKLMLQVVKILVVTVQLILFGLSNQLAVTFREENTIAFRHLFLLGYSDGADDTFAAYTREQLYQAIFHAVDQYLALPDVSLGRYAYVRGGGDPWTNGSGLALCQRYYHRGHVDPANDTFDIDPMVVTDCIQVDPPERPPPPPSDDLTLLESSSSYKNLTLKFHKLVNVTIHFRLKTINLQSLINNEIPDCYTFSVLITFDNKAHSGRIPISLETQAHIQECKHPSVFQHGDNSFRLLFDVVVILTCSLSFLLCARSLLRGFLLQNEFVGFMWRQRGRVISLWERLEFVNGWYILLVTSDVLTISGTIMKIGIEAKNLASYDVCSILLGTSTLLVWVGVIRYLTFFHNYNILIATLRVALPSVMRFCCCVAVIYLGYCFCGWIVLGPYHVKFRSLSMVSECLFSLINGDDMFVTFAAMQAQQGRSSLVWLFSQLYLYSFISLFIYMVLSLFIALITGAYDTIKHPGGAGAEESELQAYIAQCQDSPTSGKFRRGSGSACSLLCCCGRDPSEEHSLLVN
#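 Tet-induced TRPML1-DL cells loaded with Ca8 no-wash calcium dye were read kinetically on FDSS. Compound addition was followed by EC80 agonist 54-4 (4 uM final); inhibition was read over 110 s.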
# Sfp inh: Sfp phosphopantetheinyl transferase inhibition; Biochemical Sfp PPTase activity, qHTS; Q9F4F7; Potency, µM, inactives show max response, negative = inhibition, usual class: inhibitors; AID 1490; 310,000 tested, 3.5% active; active = well fitted inhibition curve with a large enough effect; inconclusive = small, poorly fitted or top-dose-only effect, or another doubt; inactive = no such curve, though single readings can be large or run the other way;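 note: the enzyme is Sfp with the accession as filed and its product quenches rhodamine fluorescence; potency is the fitted concentration of half-maximal effect; 0% = enzyme reaction without inhibitor and -100% = no enzyme wells; top concentration of the series not given in the record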
#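 After 15 min at room temperature with compound, 15 nM Sfp received 5 uM rhodamine-CoA plus 12.5 uM BHQ-2-ybbR (50 mM Hepes pH 7.6, 10 mM MgCl2). Rate came from the fluorescence difference over 30 min, ex 525/em 598 nm.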
# Menin-MLL FL inh: displaces fluorescein MLL peptide from human menin; 290,000 tested, under 10 active; FP activity change, % at 61.4 µM; Fluorescence polarization, fluorescein-MLL peptide displacement from menin; inconclusive = falling polarisation curve, or a change in total fluorescence; inactive = total fluorescence flat and polarisation flat or rising; no compound was filed as active; the % refers to the polarisation; negative = inhibition;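 note: % of control where 0% means no effect; inhibitors lower the polarisation; unlabelled MLL peptide was the positive control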
# gsp ag: gsp mutant agonism | AID 624287 | gsp mutant cells, cAMP HTRF, 30 min; control for the full effect not named in the record | 340,000 tested, 0.13% active | Potency, µM (highest dose often 76.9 µM), without a hit: at the highest dose activation (cAMP increase), usual class: activators; active = well fitted activation curve with a large enough effect; inconclusive = small, poorly fitted or top-dose-only effect, or another doubt; inactive = no such curve, though single readings can be large or run the other way; cell line not stated here;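 note: phosphodiesterase inhibitor Ro 20-1724 added with compounds to block cAMP breakdown; potency is the fitted concentration of half-maximal effect; nearly all actives have a fitted effect of over 60% in size; about a fifth of the inactives were tested at one dose only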
#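 Cells in DMEM/10% FBS with G418 were pretreated with compounds in DMSO plus […] (300 uM stock) for 30 min at 37C. cAMP was measured by HTRF (cAMP-d2 plus anti-cAMP antibody-K) after 30 min at room temperature.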
# ClpP mod: qHTS Assay for Activators of ClpP | purified B. subtilis ClpP, FRET peptide cleavage, 20 min | AID 651965, 2013 | 340,000 tested, 1.9% active | ATP-dependent Clp protease proteolytic subunit (Bacillus subtilis (strain 168)), P80244 | Potency, µM (series often up to 57.5 µM), for the others: top-dose activity change, negative = active; active = well fitted falling curve with a large enough effect; inconclusive = small, poorly fitted or top-dose-only effect; inactive = no such curve, though single readings can be large or run the other way; note: potency is the fitted concentration of half-maximal effect; the source files actives as falling curves though it sought activators and does not explain the sign; nearly all actives have a fitted effect of over 65% in size; many hits overshoot -100%
# Target sequence (P80244 whole entry, looked up): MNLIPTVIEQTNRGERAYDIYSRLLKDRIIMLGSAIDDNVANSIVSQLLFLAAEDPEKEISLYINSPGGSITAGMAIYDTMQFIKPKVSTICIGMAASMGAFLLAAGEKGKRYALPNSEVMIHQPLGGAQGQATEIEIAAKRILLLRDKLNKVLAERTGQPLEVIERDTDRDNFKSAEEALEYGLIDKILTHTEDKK
#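 FRET quenching reversal measured ClpP activation: 10 microg/mL B. subtilis ClpP at pH 8 with the FRET-FV decapeptide, read at 430 nm after 320 nm excitation. The 20-min minus 0-min signal was scaled between DMSO/no-enzyme wells and ADEP (5.8 microM final).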
# Active calls of the source: *; ? = inconclusive; . = no result given; [ ] = dose if it differs, or a comment.
SMILES,TRPV1 PAM,gsp antag,TRPML1 inh,Sfp inh,Menin-MLL FL inh,gsp ag,ClpP mod
CCOC(=O)c1[nH]c(CSc2nnc(-c3ccncc3)n2CCOC)c(C(=O)OCC)c1C,6,2%,4,-5%,1.1,-32%[inhibitor],-1.6%
COC(=O)C(N)Cc1ccc(O)cc1 (stereo not given),-21,5%,?,8%,-0.6,-4%,2.6%
COCCn1c(SCC(=O)Nc2cccc(F)c2)nc2c([nH]c3ccccc32)c1=O,4,7%,-4,-24%,.,-1%[15.4 µM],1.3%
COc1ccc(C(CNC(=O)c2ccc(S(=O)(=O)N(C)C)cc2)N2CCCC2)cc1 (stereo not given),-21,6%,-12,1%,10,-3%[15.4 µM],-4.2%
Cc1cc(C)cc(NC(=O)CSc2nnc(CNC(=O)c3ccco3)o2)c1,3,0%,-14,9%,.,2%[15.4 µM],.
COc1ccc(-n2c(=O)[nH]c3cc(C(=O)NCCc4ccc(OC)c(OC)c4)ccc3c2=O)c(OC)c1,-5,3%,27,13%,-0.4,7%,.
N#Cc1cnc2sc3ccccc3n2c1=N,6,6%,36,-3%,0.6,21%,?
Cc1cc(C(C)(C)C)cc(C)c1Cn1c2[n+](c3ccc(C(F)(F)F)cc31)CCCCC2,-13,5%,33,-24%,-0.1,0%[15.4 µM],.
O=C1C2C3C=CC(C2C(=O)N1c1ccccc1O)C1C2C(=O)N(c4ccccc4O)C(=O)C2C31 (stereo not given),14,0%,0,18%,1.8,-13%,-0.8%
CN1C(=O)C2C=CC1C1C(=O)N(c3ccccc3)C(=O)C21 (stereo not given),-11,10%,18,3%,1.8,-37%[inhibitor],-0.6%
COc1ccc2c(c1)C(=O)/C(=C/C=C/c1ccccc1)CC2,-5,-22%,27,-13%,0.3,2%,7.1%
O=C(NCc1ccccc1F)C1CCCN(S(=O)(=O)c2ccc(-n3cnnn3)cc2)C1 (stereo not given),-13,5%,-10,7%,-2.0,-11%[15.4 µM],-2.5%
COC(=O)c1ccc(Cl)c(NC(C)=O)c1,-26,9%,-2,6%,3.9,12%,-1.0%
CSC[C@H]1CN(Cc2cccnc2)C(=O)[C@@H]1CC(=O)Nc1ccc(Br)cc1,.,.,0,.,.,5%,-2.0%
Cc1[nH]n(-c2ccccc2)c(=O)c1Sc1ccc(Cl)cc1,5,-5%,-4,15%,2.3,-13%,1.0%
COc1ccc(C(=O)Nc2nc(-c3ccc(OC)cc3)c(-c3ccc([N+](=O)[O-])cc3)s2)cc1,-11,7%,36,8%,?,?,-4.3%
COc1cc(NS(=O)(=O)c2ccc(NC(=O)c3ccco3)cc2)nc(OC)n1,20,-14%,-9,17%,5.0,5%,-0.4%
CCOC(=O)C1=CN(Cc2cccc(F)c2)S(=O)(=O)N(CC)C1c1ccc2ccccc2c1 (stereo not given),.,5%,12,.,.,.,-8.0%
c1ccc(-c2ccc(SCc3cccnc3)nn2)nc1,0,-6%,6,-19%,-4.8,13%[15.4 µM],.
Cc1ccc(Nc2nnc(SCC(=O)NCC3CCCO3)s2)cc1 (stereo not given),.,3%,-16,.,.,-6%,-2.8%
Cc1c(OCc2ccccc2)c(=O)ccn1Cc1ccccc1,-14,2%,35,-6%,0.9,?,-0.8%
Cc1cccc(OCCCSc2nc3ccccc3[nH]2)c1,-6,-14%,-14,8%,2.1,-13%,0.5%
CCSc1nnc(NC(=O)CSc2nc3c(c(=O)n2CC)SC(C)C3)s1 (stereo not given),5,-5%,26,-10%,1.9,-6%,0.6%
N#C/C(=C\c1ccc(N2CCOCC2)o1)c1ccccc1,4,-13%,8,25µM*,?,-50%[inhibitor],0.4%

# Molecules above containing a Cl atom (two):
SMILES,TRPV1 PAM,gsp antag,TRPML1 inh,Sfp inh,Menin-MLL FL inh,gsp ag,ClpP mod
COC(=O)c1ccc(Cl)c(NC(C)=O)c1,-26,9%,-2,6%,3.9,12%,-1.0%
Cc1[nH]n(-c2ccccc2)c(=O)c1Sc1ccc(Cl)cc1,5,-5%,-4,15%,2.3,-13%,1.0%

# New compounds follow:
SMILES,TRPV1 PAM,gsp antag,TRPML1 inh,Sfp inh,Menin-MLL FL inh,gsp ag,ClpP mod
S=c1[nH]nc(-c2ccncc2)n1/N=C/c1cccc(Cl)c1,8,?,-2,-11%,7.5,-38%,2.6%
COc1ccc(CCNC(=O)/C=C/c2cc(OC)c(OC)c(OC)c2)cc1OC,16,-18%,4,16%,2.1,-15%[15.4 µM],.
Cc1ccc(C(=O)Nc2ccc3c4c(cccc24)CC3)cc1[N+](=O)[O-],-11,3%,9,5%,-3.2,-2%,0.7%
COCc1cc(CN(C)C(=O)C2CCC(=O)N(Cc3cccc(OC)c3)C2)[nH]n1 (stereo not given),-1,10%,-10,10%,.,6%,-2.4%
O=C(O)CC1=C(Nc2ccccc2)C(=O)N(c2ccccc2)C1c1ccc(F)cc1 (stereo not given),-9,-19%,-2,11%,3.0,-38%[inhibitor],-4.6%
COc1cccc(C(=O)NC(C)c2cccc3ccccc23)c1OC (stereo not given),-12,-16%,13,14%,7.5,-21%[15.4 µM],.
Cc1ccc(N2C(=O)CCC2(C(N)=O)c2ccccc2)cc1 (stereo not given),-4,15%,?,18%,-0.9,-41%[inhibitor],0.3%
CCC1CCc2sc(C(=O)NCC3CCCO3)cc2C1 (stereo not given),-9,-8%,7,.,.,12%,1.2%
CC1CCCN(CCCN2C(=O)C3C(C(=O)Nc4cccc(Cl)c4)C4C=CC3(O4)C2C(=O)NC2CCCCC2)C1 (stereo not given),?,11%,5,9%,4.0,25%,.
CCC(=O)Nc1ccc(/C(C)=N\NS(=O)(=O)c2ccc(C)cc2)cc1,14,3%,44,6%,-2.1,-26%,1.3%
COc1ccc(-c2sc(Nc3ccccc3)n[n+]2-c2ccccc2)cc1Br,-3,-5%,-3,.,.,5%,-0.1%
O=C(CN(Cc1cccs1)C(=O)CNC(=O)c1ccco1)NC1CCCCC1,-13,8%,23,-16%,3.8,16%,2.4%
CC1(C)CC(=O)C=C(c2ccc3ncccc3c2)C1,-21,-7%,19,.,.,-48%[inhibitor],-2.1%
C[C@]12c3[nH]c4ccc(Cl)cc4c3CCN1C(=O)[C@@H](CC(=O)NCCCn1ccnc1)C[C@@H]2C(=O)N1CCOCC1,.,6%,-1,.,.,.,2.1%
CCN(CC(=O)N1CCCC1)S(=O)(=O)c1ccccc1,-12,-1%,-5,19%,-0.5,4%,1.6%
Cc1ccc(S(=O)(=O)NC(CC(=O)O)c2ccccc2)cc1 (stereo not given),-3,8%,6,14%,1.5,27%,2.0%
Cc1ccc(NC(=O)C(=O)NCCCN2CCCC2=O)c(C)c1,5,8%,-5,.,.,8%[15.4 µM],-1.9%
O=[N+]([O-])c1cccc(C([O-])=C(C(=S)Nc2cccc3ccccc23)[n+]2ccccc2)c1,.,5%,-3,.,.,6%,.
Nc1nc(N2C(=O)C3CC=CCC3C2=O)nn1-c1ccccc1 (stereo not given),1,5%,-6,13%,-1.3,-3%,1.7%
Cn1c(CSc2nc3ccccc3s2)nc2ccccc21,4,-10%,1,0%,-1.6,5%,-5.0%
COc1cc(OC)c2c(-c3ccccc3)cc(=O)oc2c1C(CCN1CCCC(C)C1)c1ccc(N(C)C)cc1 (stereo not given),24,18%,22,?,5.0,24%,0.8%
Cc1c(C)c2c(OCC(=O)N[C@@H](C(=O)O)c3ccccc3)cc3c(c2oc1=O)CCC(C)(C)O3,14,-2%,.,21%,-0.3,.,5.2%
CCN1C(=O)c2ccccc2S(=O)c2ccc(C(=O)N3CCOCC3)cc21 (stereo not given),15,-3%,-5,10%,0.2,-3%[15.4 µM],.
Cc1cccc(N=C2SC(C)CN2C(=O)CN2C(=O)NC3(CCCC3)C2=O)c1 (stereo not given),1,-1%,-4,.,.,-75%,-1.2%
Cc1ccc(Cn2nnc3c(=O)[nH]c(C4CCCN(C(=O)Nc5ccc(F)cc5)C4)nc32)cc1 (stereo not given),-2,-17%,40,14%,-3.4,19%,0.8%
COc1ccc(OC)c2sc(N(CCN(C)C)C(=O)c3cc(Cl)sc3Cl)nc12,-2,4%,-8,56µM*,-2.8,-14%,-2.2%
COc1cc(OC)cc(C(=O)NCC(C)NC(=O)c2cc(OC)cc(OC)c2)c1 (stereo not given),.,-3%,12,.,.,9%[15.4 µM],.
Nc1ccc2nc(N)sc2c1,.,-11%,-11,.,.,?,.
CCNc1nnc(CCn2nc(C)c(Br)c2C)s1,-13,8%,-6,-3%,-0.1,5%[15.4 µM],.
COc1ccc(Br)cc1CNC(=O)Cn1nc(C)n2cccc2c1=O,17,6%,-5,9%,.,4%,0.6%
CC(C)[C@H](NC(=O)C1CCN(C(=O)[C@@H]2CCCN2)CC1)C(=O)NCc1ccc(F)cc1,11,9%,.,24%,3.9,.,-3.1%
CCN(C(=O)COC(=O)c1nc2nc(C)cc(C)n2n1)C1CCCCC1,-23,8%,-4,.,.,8%,0.5%
CCOC(=O)c1cc2c(ccn2-c2ccc(F)cc2)n1CC(=O)N(CC)CC,-2,-25%,1,?,-2.8,11%,4.2%
O=C(Nc1ccc2c(c1)OCCO2)c1cccc2nc3ccccc3nc12,-2,-24%,-14,?,-3.7,-25%,0.9%
Cc1ccn2nc(C(=O)OCC(=O)N(CC(C)C)C3CCS(=O)(=O)C3)nc2n1 (stereo not given),3,5%,-19,.,.,?,-1.6%
COc1cccc(C(C(=O)NC(C)(C)C)N(CC(C)C)C(=O)CCC(=O)Nc2cc(C)on2)c1OC (stereo not given),-1,-3%,-9,15%,-0.6,?,.
O=C(NCC(c1cccs1)N1CCOCC1)c1cc2ccccc2o1 (stereo not given),-13,-23%,13,2%,4.1,-14%,-1.9%
CCCCN(CCCC)S(=O)(=O)c1ccc2oc(C(=O)N3CCOCC3)c(C)c2c1,8,-4%,8,?,0.6,1%,0.1%
O=C(NC1CCCCC1)N(Cc1ccccc1)Cc1ccco1,-18,-29%,17,-12%,4.9,13%,-1.8%

# Compound activity from PubChem BioAssay.
